From PubChem BioAssay
STK33 inh – blocks human STK33 kinase activity; Q9BYT3; purified STK33, MBP phosphorylation, ADP-Glo luminescence; inhibition, % at 10 µM; actives 0.073% (n = 320,000);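 active = inhibition at or above 25%, using the most active replicate where run in duplicate; inactive = inhibition below 25%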
Target sequence (Q9BYT3 whole entry, looked up): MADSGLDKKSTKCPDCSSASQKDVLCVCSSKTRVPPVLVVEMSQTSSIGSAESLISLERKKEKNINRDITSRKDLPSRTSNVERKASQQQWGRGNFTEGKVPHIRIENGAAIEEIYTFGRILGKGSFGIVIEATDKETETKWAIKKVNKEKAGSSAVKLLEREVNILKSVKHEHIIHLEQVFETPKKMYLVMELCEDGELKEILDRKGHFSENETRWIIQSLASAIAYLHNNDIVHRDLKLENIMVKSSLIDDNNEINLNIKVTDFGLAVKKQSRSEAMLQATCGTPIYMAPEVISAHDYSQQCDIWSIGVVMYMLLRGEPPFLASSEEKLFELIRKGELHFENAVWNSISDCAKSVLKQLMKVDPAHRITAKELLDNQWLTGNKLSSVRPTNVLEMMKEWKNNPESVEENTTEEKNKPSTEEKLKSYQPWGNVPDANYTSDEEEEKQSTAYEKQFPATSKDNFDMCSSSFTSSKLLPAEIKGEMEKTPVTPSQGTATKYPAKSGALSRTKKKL
* hit, by the source's call.

A first look (16 entries):
SMILES	STK33 inh
COc1ccc(NC(=O)c2ccc(C#N)cc2)cc1NS(=O)(=O)c1ccc(F)cc1	1.0
COC(=O)c1cccc(C(=O)N2CCCC(C(=O)c3cccc(OC(C)C)c3)C2)c1 (configuration not stated)	-9.4
CC1(C(=O)NC(=S)N(CCC#N)c2ccccc2)CC1(Cl)Cl (configuration not stated)	-1.8
COC(=O)C(C(=O)OC)=C(/C=C/C=C/N(C)C)N(C)C	-0.8
CC1=C(C(=O)NC2CCC(C)CC2)C2(CCC(C)CC2)OC1=O (configuration not stated)	-0.5
O=C(N/C(=C/C=C/c1ccccc1)C(=O)N1CCCCC1)c1ccc([N+](=O)[O-])cc1	-2.9
O=C(O)c1ccc2c(c1)C(=O)N(CCCCCCCN1C(=O)c3ccc(C(=O)O)cc3C1=O)C2=O	2.6
NC(=O)C1CCN(c2oc(/C=C/c3ccccc3)nc2S(=O)(=O)c2ccccc2)CC1	-0.8
O=C(Nc1ccccc1)OCCOc1ccccc1Br	-0.6
COc1cc(/C=N/O)ccc1Oc1cnccn1	-1.3
CSCC[C@H](NC(=O)NCc1cccs1)C(=O)O	2.2
CC(=O)Nc1cc2c(cc1NC(=O)Cn1nc(-c3ccc(F)cc3)ccc1=O)OCCO2	0.4
O=C(Nc1ccc2c(c1)OCCO2)c1cc(-n2cnnc2)ccc1Cl	-2.2
Cc1nnc(NC2=NCCCCC2)o1	-1.8
O=C(c1cc(S(=O)(=O)N2CCN(c3ccccc3)CC2)ccc1Cl)N1CCCCCCC1	-0.6
Cc1ccc(NC(=O)OCc2cncs2)cc1	-0.4

Results, repeating the preview:
SMILES	STK33 inh
COc1ccc(NC(=O)c2ccc(C#N)cc2)cc1NS(=O)(=O)c1ccc(F)cc1	1.0
COC(=O)c1cccc(C(=O)N2CCCC(C(=O)c3cccc(OC(C)C)c3)C2)c1 (configuration not stated)	-9.4
CC1(C(=O)NC(=S)N(CCC#N)c2ccccc2)CC1(Cl)Cl (configuration not stated)	-1.8
COC(=O)C(C(=O)OC)=C(/C=C/C=C/N(C)C)N(C)C	-0.8
CC1=C(C(=O)NC2CCC(C)CC2)C2(CCC(C)CC2)OC1=O (configuration not stated)	-0.5
O=C(N/C(=C/C=C/c1ccccc1)C(=O)N1CCCCC1)c1ccc([N+](=O)[O-])cc1	-2.9
O=C(O)c1ccc2c(c1)C(=O)N(CCCCCCCN1C(=O)c3ccc(C(=O)O)cc3C1=O)C2=O	2.6
NC(=O)C1CCN(c2oc(/C=C/c3ccccc3)nc2S(=O)(=O)c2ccccc2)CC1	-0.8
O=C(Nc1ccccc1)OCCOc1ccccc1Br	-0.6
COc1cc(/C=N/O)ccc1Oc1cnccn1	-1.3
CSCC[C@H](NC(=O)NCc1cccs1)C(=O)O	2.2
CC(=O)Nc1cc2c(cc1NC(=O)Cn1nc(-c3ccc(F)cc3)ccc1=O)OCCO2	0.4
O=C(Nc1ccc2c(c1)OCCO2)c1cc(-n2cnnc2)ccc1Cl	-2.2
Cc1nnc(NC2=NCCCCC2)o1	-1.8
O=C(c1cc(S(=O)(=O)N2CCN(c3ccccc3)CC2)ccc1Cl)N1CCCCCCC1	-0.6
Cc1ccc(NC(=O)OCc2cncs2)cc1	-0.4
O=C(NCSc1ccccc1)c1ccccc1	-1.3
CC1CC(C)(C)NC(=S)N1CCC(=O)N1CCc2ccccc21 (configuration not stated)	0.4
O=c1cc(-c2ccc(O)cc2)oc2ccc(O)cc12	1.0
CCn1c(CNC(=O)c2ccccc2F)nnc1SCc1nc2ccccc2c(=O)[nH]1	5.3
CN1C=CC(=CC=C2C=CC(=O)C=C2)C=C1	-0.9
Cc1cc(N2CCC(C)CC2)n2ncc(-c3ccccc3)c2n1	-1.7
O=C(Cn1nc(C(F)(F)F)c2c1CCC2)Nc1ccccc1C(F)(F)F	-1.4
COC(=O)C1=C(C)N(C)C(=S)N(C)C1c1ccc(OC)cc1 (configuration not stated)	-2.0
COc1ccccc1-c1cc(C(=O)NCCN2CCOCC2)no1	-1.2
O=C(NC1CCCC1)C1CC(O)CN1C(=O)Nc1ccccc1 (configuration not stated)	0.0
CCOc1ccc2nc(N/C(N)=N/S(C)(=O)=O)nc(C)c2c1	-3.2
Fc1cccc(CSc2nnc3ccc(-c4ccncc4)nn23)c1	1.1
COc1ccc2c(=O)c3c(=O)n(-c4ccccc4)c(-c4ccc(C)cc4)nc3oc2c1	-1.6
COc1ccc(S(=O)(=O)N(CC(=O)NCC2CCCO2)c2ccc(Cl)cc2)cc1 (configuration not stated)	-0.1
OC(CN1CCN(c2cccc(Cl)c2)CC1)c1ccccc1 (configuration not stated)	1.0
Cc1ccc(S(=O)(=O)NCC(c2ccc3c(c2)OCO3)N2CCOCC2)cc1 (configuration not stated)	0.1
Cc1nc(NCC2CCCO2)[nH]c(=O)c1CCC(C)C (configuration not stated)	0.7
O=C(O)c1cc(S(=O)(=O)NCC2CCCO2)ccc1Cl (configuration not stated)	-4.0
Cc1ccc(CS(=O)(=O)CCC(=O)NCc2ccc(F)cc2)cc1	-1.7
CN1CCN(C(=O)C2CCCCC2C(=O)O)CC1 (configuration not stated)	-0.6
CC(NC(=O)c1ccc(F)cc1)c1ccc2c(c1)CCCC2 (configuration not stated)	0.0
Cc1ccc(Oc2ncccc2COC(=O)Nc2ccccc2C)cc1	-0.2
COc1ccc(NC(=O)CN(C)C(=O)c2ccc(N3CCCCCC3)c([N+](=O)[O-])c2)cc1	-0.5
O=C(CN1C(=O)NC(Cc2c[nH]c3ccccc23)C1=O)NCCc1ccccc1 (configuration not stated)	-1.2
Cc1ccccc1C(=O)Oc1ccc(Br)cc1C(=S)N1CCCC1	-0.6
Cc1c(NS(=O)(=O)c2ccc3nc(COc4ccccc4Cl)[nH]c3c2)c(=O)n(-c2ccccc2)n1C	-0.4
Cc1ccc(NC(=O)C[n+]2ccn(C3=C([O-])c4ccccc4C3=O)c2)cc1	0.4
O=C(NCC1CCCO1)c1cccc(F)c1 (configuration not stated)	-2.5
O=S(=O)(N/N=C\c1cn(-c2ccccc2)nc1-c1ccccc1)c1ccccc1	1.3
C#CCOC(=O)c1cc(Cl)c(=O)n(Cc2ccc(Cl)cc2Cl)c1	-0.6
CCc1ccc(N2CC(C(=O)Nc3ccc(S(=O)(=O)N4CCOCC4)cc3)CC2=O)cc1 (configuration not stated)	-1.3
Cn1cc(S(=O)(=O)N2CCCC2)cc1C(=O)Nc1cccc(C(F)(F)F)c1	-1.1
Cc1cc(C)c(C#N)c(SC(C(=O)NC(C)(C)C)c2ccccc2)n1 (configuration not stated)	-0.9
O=C(COc1ccc(F)cc1)Nc1ccccc1N1CCOCC1	-0.8
COc1ccc(OCCC(=O)OCC(=O)NCc2ccco2)cc1	0.1
O=C(NCCc1ccccc1)c1ccc2c(c1)S(=O)(=O)c1ccccc1C2=O	-0.2
CCCCCCSc1cc(-c2nc3cnccn3c2NCc2ccccc2)ccc1OC	-0.5
COCCn1c(SCC(=O)N2CCCCC2)nc2c([nH]c3ccccc32)c1=O	4.7
CC(=O)Nc1sc(N/N=C\c2ccco2)nc1-c1cccs1	-1.1
COc1ccccc1NC(=O)CSC1CC(=O)N(c2ccc3c(c2)OCO3)C1=O (configuration not stated)	1.0
CN(C(=O)c1ccccc1OCc1ccc(Cl)cc1)c1ccccc1	-1.9
Cc1cccc(C)c1NC(=O)c1ccc([N+](=O)[O-])s1	1.1
O=S(=O)(c1ccc(Cl)cc1)N1CCN(C(=S)Nc2ccccc2F)CC1	-3.0
Cc1ccc(S(=O)(=O)c2c(C)cc(C)nc2Oc2cccc(C)c2C)cc1	-1.1
Continued.
SMILES	STK33 inh
O=C(Nc1cc(Sc2nc3ccccc3s2)cc([N+](=O)[O-])c1)c1cccc(F)c1F	-1.5
CC1=C(C(=O)N2CCOCC2)C(c2c(F)cccc2F)NC(=O)N1 (configuration not stated)	-1.5
CCC(=O)c1ccc(OCC(O)CNCc2ccc(F)cc2)cc1 (configuration not stated)	-1.0
CCCCN(CC)CCCNC(=O)C1CCN(c2ncnc3c2sc2cccc(F)c23)CC1	0.3
CC1=CC(c2ccc(Cl)cc2)n2nc(NC(=O)CCCC(=O)O)nc2N1 (configuration not stated)	0.1
COc1ccc(-c2ccc(-c3noc(C(C)C)n3)c(OC)n2)cc1	0.0
c1ccc(-c2ccccc2OCCCCN2CCCCC2)cc1	-1.9
COc1ccc(C(=O)COC(=O)COc2cc(C)cc(C)c2)cc1	-0.9
CCCCOC(=O)C1=C(C)NC(=O)NC1c1ccccc1 (configuration not stated)	-1.1
CCN(CC(=O)c1c(N)n(C)c(=O)n(C)c1=O)c1cccc2ccccc12	2.3
CCCCOC(=O)Oc1ccc2c(=O)c(Oc3cc(C)cc(C)c3)coc2c1	0.4
COc1ccc(/C=N/Nc2nnc(Cc3ccc(OC)c(OC)c3)c(=O)[nH]2)cc1OC	-3.2
C/C(=N\Nc1ccc2nncn2n1)c1ccco1	0.0
O=C(CCN1C(=O)/C(=C/c2ccc(F)cc2)SC1=S)NC1C=CS(=O)(=O)C1 (configuration not stated)	-1.2
O=C(Nc1c(F)cc(F)cc1Br)C1CCCO1 (configuration not stated)	-0.4
Cc1ccc(NC(=O)N2CCCC2C(=O)NCC2CCCCC2)cc1 (configuration not stated)	1.6
CCOc1cc(/C=N/NC(=O)CN2CCOCC2)ccc1OCc1ccccc1	-0.5
CC(=O)NC1(c2ccccc2)CCN(Cc2nnnn2C(C)(C)C)CC1	-2.2
O=C1CN(C(=O)NCC(=O)N[C@@H](C(=O)O)c2ccccc2)c2ccccc2N1	-2.0
CN(C)S(=O)(=O)c1ccc2c(c1)C(=NNC(N)=O)c1cc(S(=O)(=O)N(C)C)ccc1-2	-0.9
O=C(N/N=C/C1CC=CCC1)c1cc(-c2cccnc2)nc2ccccc12 (configuration not stated)	-0.7
CCn1c(C)c(C(C)=O)c(N2CCN(c3cccc(Cl)c3)CC2)nc1=S	0.0
C/C(=N\N(c1ccccc1)c1ccccc1)c1ccco1	1.5
CCc1c(C)nc2c(OC)cccc2c1Cl	-0.9
Cn1c(=O)c2c(O)c(Cc3ccccc3)c(=O)[nH]c2n(C)c1=O	-0.8
Cc1ccc(S(=O)(=O)CCC(=O)OCC(=O)c2ccc(F)cc2)cc1	-0.6
CCOC(=O)c1[nH]c2ccc(Br)cc2c1NC(=O)CCN1CCC(C)CC1	-1.4
COc1cc(CCC(=O)N2CCN(c3ccc([N+](=O)[O-])cc3)CC2)cc(OC)c1OC	-0.1
CC(C)Oc1cccc(C(=O)N2CCCC2)c1	-0.5
C=CCN(c1ccccc1C(=O)O)S(=O)(=O)c1ccc(C)cc1	0.3
CCCN1C(=O)C(Cc2nc3ccccc3c(=O)n2C)c2ccccc21 (configuration not stated)	0.4
O=C(Nc1cccc(Cl)c1)c1cc(S(=O)(=O)N2CCOCC2)cs1	0.6
CSc1cccc(NC(=O)CN(c2cccc(C)c2)S(C)(=O)=O)c1	-1.0
CN(C)c1ccc(CN(CC2CCCO2)C(=O)c2cccs2)cc1 (configuration not stated)	-0.3
O=C(CCC(=O)NC1CCN(Cc2ccccc2)CC1)NCc1ccco1	0.3
O=C(Nc1ccccc1F)C1(c2ccccc2)CC1(Cl)Cl (configuration not stated)	1.0
Cc1cccc2cc(C#N)c(N3CCN(C)CC3)nc12	0.2
Cc1nn(C(C)C(=O)NCCN2CCCC2)c(=O)c2c1sc1ccccc12 (configuration not stated)	0.2
COc1cc(C(=O)NC(=S)N(CCc2ccccc2)CCc2ccccc2)cc(OC)c1OC	-0.9
Cc1occc1C(=O)N/N=C/C(Br)=C/c1ccccc1	2.1
COc1ccc(/C=C/C(=O)NNc2c(F)c(F)cc(F)c2F)cc1OC	0.9
O=C(O)c1ccccc1-c1ccccc1C(=O)NCc1ccccc1F	0.2
CCCCN1C(=O)C(=O)NC[C@@H]1C(C)CC (some centres not stated)	-0.2
CCCCC(=O)Nc1cccc(NC(=O)CC)c1	-1.8
Cc1ccc(NC(=O)CSc2ncnc3ccccc23)cc1S(=O)(=O)N1CCCCC1	0.4
COC(=O)c1nc(NC(=O)c2ccc(Br)cc2)n[nH]1	-2.1
CCOC(=O)[C@@H]1[C@H]2COc3ccc(Br)cc3[C@@H]2N2C(=O)N(c3ccc(C)cc3)C(=O)[C@]12C	-0.5
C=CCC1(C#N)C(SC)=NC2=C(C(=O)CC(C)(C)C2)C1c1ccc(Br)cc1 (configuration not stated)	0.5
COc1ccccc1NC(=O)c1ccc(COc2ccccc2OC)o1	-2.2
COc1ccc(NC(=O)COC(=O)Cc2cccs2)cc1OC	-1.0
O=C(Cc1c(F)cccc1Cl)Nc1ccc(-n2cnnn2)cc1	-0.2
Cc1[nH]c2ccccc2c1C(O)CN1CCN(c2cccc(C(F)(F)F)c2)CC1 (configuration not stated)	-2.2
O=C(/C=C/c1ccco1)Nc1ccc(N2CCCC2)cc1	-0.2
Cn1c(=O)c2c(ncn2CC(=O)NCc2cccnc2)n(C)c1=O	-1.0
COc1ccc(N(C(=O)c2ccco2)C(C(=O)NC2CCCCC2)c2ccccc2)cc1 (configuration not stated)	-1.3
CCc1noc(C)c1C(=O)NNC(=O)c1ccc(Br)cc1	-3.0
CCCCSCc1cc(C(=O)O)oc1C(C)(C)C	-1.9
O=C(Cc1cccs1)NNC(=O)c1ccc(F)cc1	-0.5
CCn1c(CC(=O)Nc2ccc(OC)cc2)nnc1SCC(=O)N1CCOCC1	-1.0
COc1cccc(N2CC(C(=O)Nc3c(C(N)=O)oc4ccccc34)CC2=O)c1 (configuration not stated)	-0.8
(list continues)
SMILES	STK33 inh
CC(C)OC(=O)c1c(NC(=O)c2ccco2)sc2c1CCCCC2	0.9
O=[N+]([O-])c1ccc(N/N=C/c2ccccc2)c(F)c1	-0.2
Cc1cccc(OCCCC(=O)Nc2ccc(N3CCCCC3)cc2)c1	0.8
CC1=CC(C)(C)Nc2ccc(OC(=O)c3ccco3)cc21	-1.7
O=C(CCN1C(=O)/C(=C/c2ccc(Cl)cc2)SC1=S)NCCCn1ccnc1	-0.1
Cc1ccc(CNC(=O)c2c(-c3ccccc3)noc2C)cc1	0.1

Some of the compounds tested; most or all hits stand in other tables.
